High-throughput results: PubChem BioAssay, National Center for Advancing Translational Sciences (NCATS)
KCNH2 WT inh = KCNH2 (human, wildtype) channel inhibition; hit rate 0.37% among 340,000; activity change, % at 1.84 µM; Q12809; U2OS, BacMam KCNH2, thallium flux FluxOr; active compounds read low;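 active = maximum activity change below -70%; inconclusive = maximum activity change between -70% and -50%; inactive = maximum activity change above -50%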; note: % is set by controls: 0 for no effect and ±100 for the full control effect
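U2OS cells were transduced with wild-type KCNH2 virus (2.03 x 10^8 / mL) for 4 h at room temperature, then cultured overnight at 37 C. Thallium flux was read with FluxOr dye. Rate constants were normalized to DMSO controls.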
GALK inhibitor = galactokinase (human) inhibition; AID 1868; P51570; Purified GALK, Kinase-Glo residual ATP luminescence; hit rate 0.007% among 270,000; Potency, µM (doses to about 57.5 µM), inactives show at the top dose activity change, negative = inhibition, actives largely listed as inhibitors; note: potency is the fitted concentration of half-maximal effect; % is set by controls: 0 for no effect and ±100 for the full control effect
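Kinase-Glo Plus luminescence measured ATP left after a 1 h room-temperature reaction. The reaction used 5 nM GALK, 100 uM galactose and 35 uM ATP at pH 8.0 (20 mM HEPES, 5 mM MgCl2, 60 mM NaCl, 1 mM DTT, 0.01% BSA).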
Mito fusion act = mitochondrial division inhibition or fusion activation. S. cerevisiae fusion-defective mutant growth rescue, CellTiterGlo 48 h. hit rate 0.23% among 320,000. AID 485298. Potency, µM (titrated, usually from 46.1 µM), inactives show at the highest dose growth rescue (activation), most hits filed as activators;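 note: potency is the fitted concentration of half-maximal effect; % of control where 0% means no effect; nearly all actives have a fitted effect of over 45% in size; temperature-sensitive fusion mutants such as fzo1-1 at 37 °C on non-fermentable ethanol glycerol medium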
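S. cerevisiae fusion-defective temperature-sensitive mutants (e.g. fzo1-1, mgm1-5) grown 48 h at 37C in YPEG (ethanol/glycerol non-fermentable) medium with 23 nl compound per well; growth rescue read as CellTiterGlo luminescence.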
USP2a inh = inhibitors of human ubiquitin-specific protease USP2a; Potency, µM (highest dose often 38.3 µM), without a hit: at the highest dose activity change, negative = inhibition, hits mostly inhibitors; O75604; hit rate 0.01% among 330,000; USP2 core, Ub-CHOP2 coupled fluorogenic reporter, 485/531;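 note: potency is the fitted concentration of half-maximal effect; plate controls were DMSO wells for no effect and full inhibition by NEM control for full effect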
Target sequence (O75604 whole entry, looked up): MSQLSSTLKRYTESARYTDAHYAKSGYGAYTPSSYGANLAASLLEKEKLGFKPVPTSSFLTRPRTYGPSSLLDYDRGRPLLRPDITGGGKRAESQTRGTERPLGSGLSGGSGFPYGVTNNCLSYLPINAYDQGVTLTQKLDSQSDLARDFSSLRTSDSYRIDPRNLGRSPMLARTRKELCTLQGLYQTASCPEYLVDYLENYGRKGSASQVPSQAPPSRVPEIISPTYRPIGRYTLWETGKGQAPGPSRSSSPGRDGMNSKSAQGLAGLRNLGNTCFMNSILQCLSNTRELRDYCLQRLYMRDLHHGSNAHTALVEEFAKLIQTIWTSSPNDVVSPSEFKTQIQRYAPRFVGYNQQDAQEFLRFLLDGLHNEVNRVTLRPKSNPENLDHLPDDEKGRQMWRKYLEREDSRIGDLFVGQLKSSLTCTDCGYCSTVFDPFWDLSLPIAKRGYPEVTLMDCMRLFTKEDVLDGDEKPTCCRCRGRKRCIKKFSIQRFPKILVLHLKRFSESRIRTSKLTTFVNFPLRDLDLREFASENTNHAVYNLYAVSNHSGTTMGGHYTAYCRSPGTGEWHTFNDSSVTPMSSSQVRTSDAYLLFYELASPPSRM
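USP2 core (10nM final) preincubated 30min RT with compound in 20mM Tris-HCl pH 8.0, 2mM CaCl2, 2mM beta-mercaptoethanol, 0.05% CHAPS; 25nM Ub-CHOP2 plus 25nM reporter substrate added, fluorescence (Ex485/Em531) read after 60min.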
ASM inhibitor = blocks human secretory acid sphingomyelinase | P17405 | placental ASM, HMU-PC fluorogenic substrate, 60 min | Potency, µM (top dose mostly 57.5 µM), without a hit: at the top dose activity change, negative = inhibition, usual class: inhibitors | hit rate 0.006% among 340,000 | AID 504937; note: potency is the fitted concentration of half-maximal effect
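qHTS format. ASM enzyme prepared from human placenta hydrolyses the fluorogenic substrate HMU-PC0 (9 uM final) over 60 min at 37 °C after a 10 min compound preincubation.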
MBNL1 CUG block = blocks human MBNL1 binding to CUG repeat RNA; Q9NR56; TR-FRET MBNL1-His/biotin-(CUG)12 binding, 665/545 ratio; Potency, µM (titrated, usually from 57.5 µM), without a hit: at the top dose activity change, negative = inhibition, hits mostly inhibitors; hit rate 0.036% among 280,000; active = well fitted inhibition curve with a large enough effect in the signal ratio, with a control signal flat, not every such curve was filed as active; inconclusive = small, poorly fitted or top-dose-only effect, or effect the other way, or a change in a side signal; inactive = no such curve, though single readings can be large or run the other way; the % refers to the signal ratio; note: potency is the fitted concentration of half-maximal effect; % is set by controls: 0 for no effect and ±100 for the full control effect
Target sequence (Q9NR56 whole entry, looked up): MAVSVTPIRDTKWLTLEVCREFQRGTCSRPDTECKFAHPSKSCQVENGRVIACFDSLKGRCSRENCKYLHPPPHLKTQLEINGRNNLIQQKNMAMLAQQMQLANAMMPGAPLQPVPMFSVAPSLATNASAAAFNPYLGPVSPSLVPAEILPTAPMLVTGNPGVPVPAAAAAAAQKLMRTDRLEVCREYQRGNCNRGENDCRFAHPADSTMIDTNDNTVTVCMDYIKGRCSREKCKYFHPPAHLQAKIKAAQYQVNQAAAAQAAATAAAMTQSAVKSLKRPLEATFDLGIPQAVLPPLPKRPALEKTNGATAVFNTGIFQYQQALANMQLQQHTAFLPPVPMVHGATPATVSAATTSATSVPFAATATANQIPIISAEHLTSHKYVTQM
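Compounds (final 92 nM to 58 uM) are added to His-tagged MBNL1 and biotin-(CUG)12, then terbium anti-His antibody and streptavidin-XL665 (5 nM final). After 60 min at room temperature, the 665/545 nm ratio is read.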
Eya2 phos inh = blocks the phosphatase activity of human Eya2; hit rate 0.006% among 330,000; AID 488837; Potency, µM (doses to about 76.9 µM), inactives show at the highest dose activity, negative = inhibition, usual class: inhibitors; O00167; recombinant Eya2, OMFP fluorescence dephosphorylation (OMFP is methylfluorescein phosphate); note: potency is the fitted concentration of half-maximal effect; % is set by controls: 0 for no effect and ±100 for the full control effect
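Eya2 (0.2 uM) preincubated 10 min at ambient with compound, then OMFP substrate added at 50 uM; 10 min reaction in 50 mM HEPES pH 7.5, 50 mM NaCl, 5 uM MgCl2, 0.05% BSA, 1 mM DTT. Fluorescence read at Ex 485/Em 525 nm.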
BCR signal inh = blocks chronic active B-cell receptor signaling | AID 493014 | hit rate 0.05% among 340,000 | ABC-DLBCL IkBa-CBG/CBR reporter, luminescence ratio, 4 h | Potency, µM (series often up to 46.1 µM), without a hit: top-dose ratio change, negative = lower green/red ratio, usual class: inhibitors; active = well fitted inhibition curve with a large enough effect in the signal ratio, with a control signal flat, not every such curve was filed as active; inconclusive = small, poorly fitted or top-dose-only effect, or effect the other way, or a change in a side signal; the % refers to the signal ratio;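 note: potency is the fitted concentration of half-maximal effect; plate controls were basal doxycycline-induced cells for no effect and cells given 10 µM MG132 for full effect; MG132 reads +100%, hits lower the ratio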
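TMD8 human ABC-DLBCL cells with doxycycline-inducible IκBα–green luciferase fusion and unfused red luciferase, in 0.5% FBS medium; compounds up to 46 uM, 4 h at 37C. Green/red luminescence ratio, filter-overlap corrected, fitted to concentration-response curves.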
Menin MLL FP TR = inhibitors of human menin-MLL interaction, mutant MLL peptide; O00255; Menin + Texas Red MLL mutant peptide, fluorescence polarization; Potency, µM (titrated, usually from 61.6 µM), inactives show at the highest dose FP activity change, negative = inhibition, actives largely listed as inhibitors; hit rate 0.23% among 270,000; active = well fitted inhibition curve with a large enough effect in the polarisation, with a control signal flat, not every such curve was filed as active; inconclusive = small, poorly fitted or top-dose-only effect, or effect the other way, or a change in a side signal; inactive = no such curve, though single readings can be large or run the other way; the % refers to the polarisation; note: potency is the fitted concentration of half-maximal effect; % of control where 0% means no effect; many of its hits are not listed in these tables
TSHR antagonist = blocks TSH signaling through the human TSH receptor. P16473. TSHR-expressing cells, TSH-stimulated cAMP HTRF, 2 h; active compounds read low. activity change, negative = inhibition, % at 11.5 µM. hit rate 0.2% among 330,000. AID 504810;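 active = activity change below a set negative limit, meaning inhibition stronger than a set level, cut at about -70% in these data; inconclusive = activity change between two set negative limits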; note: % is set by controls: 0 for no effect and ±100 for the full control effect
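TSHR-expressing cells were treated with compounds, then stimulated with TSH at EC80 (4nM final) for 2 hours at 37 deg C. Cellular cAMP was measured by HTRF competition between lysate cAMP and cAMP-d2 for a cryptate-labelled anti-cAMP antibody.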
* hit, by the source's call; i = inactive; ? = inconclusive; nt = no result given; [ ] = remark or other dose. Unless noted, calls come from the whole dose curve; as a rule, active = well fitted curve in the direction sought with a large enough effect; inconclusive = small, poorly fitted or top-dose-only effect, or another doubt; inactive = no such curve, though single readings can be large; an effect the other way counts as inactive or inconclusive. Only part of the results is shown. The share of hits here may be higher or lower than overall.

SMILES	KCNH2 WT inh	GALK inhibitor	Mito fusion act	USP2a inh	ASM inhibitor	MBNL1 CUG block	Eya2 phos inh	BCR signal inh	Menin MLL FP TR	TSHR antagonist
Cc1[nH]c(=O)c(C#N)c2c1CSC(C)(C)C2	-1.7	4.4%	-1.1%	0.3%	7.9%	-1.9%	11.0%	?	-19.8%	-14.1
COC(=O)C(NS(=O)(=O)c1ccc(C)cc1)c1ccccc1 (stereo not drawn)	-5.5	-0.3%	0.0%	-1.9%	9.7%	nt	0.9%	-0.7%	-9.6%	-1.3
CCS(=O)(=O)N1Cc2ccccc2CC1C(=O)NC(C)C12CC3CC(CC(C3)C1)C2 (stereo not drawn)	-24.5	0.9%	10.4%	0.4%	-4.7%	1.5%	-14.8%	-1.2%	-9.8%	-7.7
Cc1ccccc1C(=O)NNC(=S)NC(=O)c1ccc(Cl)cc1Cl	-7.8	-0.6%	-14.2%	-2.2%	-3.0%	-1.5%	4.5%	?	12.9%	6.8
O=C(C1=C[C@@H](c2ccc(Br)cc2)C[C@@H](OCCCCO)O1)N1CCN(Cc2ccccc2)CC1	-41.5	3.2%	0.1%	-1.1%	-6.9%	13.8%	-0.8%	-13.1%	?	-2.4
CCS(=O)(=O)c1ccc2c(c1)N(S(=O)(=O)c1ccccc1)CC(C(=O)O)O2 (stereo not drawn)	-2.2	-1.1%	-1.8%	-2.6%	0.8%	-4.2%	-0.5%	?	-25.0%	18.5
Cc1ccc(N(C(=O)c2sc(C)nc2C)C(C(=O)NCc2ccco2)c2ccccc2)cc1 (stereo not drawn)	12.1	-3.8%	-7.6%	2.9%	-0.3%	1.0%	-8.4%	2.5%	-5.8%	33.7
CCN(CC)C(=O)CSc1nnc(-c2cccnc2)n1Cc1ccccc1	-7.2	0.8%	-2.3%	0.7%	4.7%	1.0%	20.6%	15.1%	-5.1%	6.2
C=CCn1cccc(C(=O)Nc2cc(OC)c(OC)c(OC)c2)c1=O	-4.1	-0.7%	0.6%	4.0%	-1.8%	-5.2%	-7.8%	-14.6%	-0.5%	0.0
Brc1ccc(-c2nn3c(-c4ccncc4)nnc3s2)o1	nt	1.6%	2.9%	0.9%	nt	16.8%	-2.4%	4.1%	0.6%	7.4
CCOC(=O)Cc1csc(N/C(=N/S(=O)(=O)c2ccc(F)cc2F)c2ccccc2)n1	-17.4	-0.4%	-2.8%	2.0%	5.7%	-6.4%	-5.9%	-8.2%	17.9%	-1.2
Cc1nnc(NC(=O)CSc2ccc(-c3ccccn3)nn2)s1	nt	-1.5%	0.5%	1.7%	nt	14.1%	-3.1%	?	0.9%	2.2
CCOC(=O)Cc1csc(SC(C)C(=O)NCC(=O)Nc2ccc(F)c(F)c2F)n1 (stereo not drawn)	-3.9	-2.9%	-0.5%	-0.8%	-0.7%	3.7%	-0.3%	-0.1%	nt	9.7
CC1CCN(CCn2c(=S)[nH]c3ccccc3c2=O)CC1	4.5	6.4%	-3.1%	-0.4%	-0.9%	15.7%	-15.7%	-1.1%	-2.3%	3.8
Cc1ccc(NC(=O)CCC(=O)NNC(=O)c2cccs2)c(C)c1	5.6	nt	2.1%	2.6%	0.8%	4.6%	-6.9%	1.6%	18.9%	8.1
CCCc1nn(C)c2c(=O)[nH]c(-c3cc(S(=O)(=O)Nc4ccc(NC(C)=O)cc4)ccc3OCC)nc12	-0.5	-1.3%	-1.8%	0.4%	-6.6%	-3.3%	2.5%	-0.8%	nt	-4.8
CC(C(=O)NCC1CCCO1)c1ccc([N+](=O)[O-])cc1 (stereo not drawn)	i	0.8%	-0.8%	5.8%	2.7%	?	12.8%	2.0%	-5.3%	0.8
Cc1cc(=O)c2ccc(Cl)cc2[nH]1	4.0	nt	-0.8%	0.6%	3.9%	-25.2%	2.7%	-4.0%	23.7%[138 µM]	2.2
O=C(CCN1CCCCC1)c1ccc2c(c1)OCO2	0.9	nt	1.8%	2.3%	-0.1%	-4.2%	-7.3%	5.9%	10.4%	-6.8
O=C(C1=C[C@@H](c2coc3ccccc3c2=O)C[C@@H](OCc2ccc(CO)cc2)O1)N1CCN(Cc2ccc3c(c2)OCO3)CC1	nt	-0.8%	6.2%	2.9%	-4.2%	2.4%	-1.5%	?	?	-3.4
Cc1ccc(CN2CCC(CO)(CC3CCCCO3)CC2)o1 (stereo not drawn)	-0.6	7.4%	-1.1%	-2.1%	-1.3%	-11.3%	0.7%	0.0%	10.0%	0.5
O=S(=O)(Nc1cc(C(F)(F)F)ccc1N1CCOCC1)c1ccccc1	4.9	nt	-0.9%	-0.2%	-1.1%	5.5%	-19.9%	-5.0%	nt	-2.6
CCC(CC)C(=O)Nc1cccc(C(=O)NCCc2ccccc2)c1	3.3	-0.9%	-4.4%	1.6%	2.1%	-4.7%	-1.6%	?	-5.8%	-2.2
CCc1ccc(/C(C)=N\Nc2ccc([N+](=O)[O-])cc2)cc1	-12.1	-2.0%	-3.9%	-1.4%	-7.5%	-2.2%	-1.5%	?	?	-6.5
CCOC(=O)c1c(C(=O)OCC)c(C)n(Cc2cc(OC)c(OC)c(OC)c2)c1C	-14.9	nt	-33.3%[inhibitor]	0.8%	2.7%	-16.7%[11.5 µM]	-0.9%	-0.1%	-2.4%	0.5
CC(=O)Nc1ccc(S(=O)(=O)N2CCN(C(=O)c3ccccc3F)CC2)cc1	-0.8	-3.0%	-4.0%	1.7%	3.3%	-10.7%	4.1%	-12.2%	7.7%	-2.5
Cc1cccc(C(=O)OC(C)CN2CCCC2)c1 (stereo not drawn)	0.6	-3.3%	-0.8%	-0.3%	3.1%	-0.8%	2.3%	-0.7%	4.6%	2.4
CCOC(=O)c1c(NC(=O)C(C)Sc2nnc(C)c(=O)[nH]2)sc2c1CCCC2 (stereo not drawn)	-4.1	5.7%	30.1%	-6.0%	33.7%[activator]	-3.3%	1.8%	?	19.7%	-16.3
O=C(NCCCN1CCCC1=O)Nc1ccc(F)c(Cl)c1	24.9	-3.2%	-1.1%	1.1%	5.1%	2.2%	-1.1%	3.0%	?	-14.5
CC(=O)C1=C(O)C(=O)N(c2ccc(O)cc2)C1c1ccc(C)cc1 (stereo not drawn)	2.3	2.6%	-1.1%	-0.4%	-0.3%	21.8%	-11.6%	-0.1%	18.1%	-8.9
NC(N)=N/N=C/c1ccc(OCc2ccccc2Cl)cc1	41.1	-0.8%	-3.0%	-28.5%	?	4.7%	35.5µM*	?	?	28.9
COc1ccccc1CNc1nc2nc(C)c(Cl)c(=O)n2[nH]1	-13.2	-8.5%	-9.9%	-4.9%	0.7%	?	2.1%	?	-24.6%	17.4
CC12CN(NC(=O)c3ccc(Cl)cc3)C3(C#N)CC1CCC23C (stereo not drawn)	6.3	-1.3%	-2.5%	2.6%	3.2%	-1.2%	-1.7%	7.1%	-10.3%	-15.6
COCCNC(=O)CSc1nc2cc(OC)c(OC)cc2c(=O)n1CCc1ccc(S(N)(=O)=O)cc1	-14.3	-1.9%	1.5%	1.4%	2.6%	-3.3%	2.3%	-10.2%	-14.6%	-0.7
COc1ccc2c(c1)SCCC2=O	-8.4	0.8%	3.2%	5.2%	-1.3%	0.8%	-7.5%	?	2.3%	-0.9
COc1ccc(C(=O)NCCCNC(=O)c2cnccn2)cc1	-2.2	-0.6%	-4.4%	2.3%	2.5%	-2.1%	6.2%	0.5%	-0.2%	-5.4
O=C(O)c1ccc(S(=O)(=O)c2ccc3c(c2)C(=O)N(c2ccc(O)cc2)C3=O)cc1	-0.4	3.8%	-6.1%	8.1%	1.7%	?	3.5%	0.7%	nt	-0.5
Cc1sc2ncnc(NCCc3ccc(S(N)(=O)=O)cc3)c2c1C	-5.0	-0.5%	-3.4%	3.5%	0.9%	?	-23.8%	?	0.5%	-36.1
CN(CCC#N)C(=O)CC1(Cc2ccccc2)CCOC(C)(C)C1 (stereo not drawn)	-1.9	0.4%	-3.4%	-0.9%	4.2%	-8.5%	3.3%	10.9%	nt	-3.8
COc1cc2ccnc(Cc3cccc(OC)c3OC)c2cc1OC	-8.1	1.2%	1.1%	-0.5%	3.6%	-14.9%	-7.2%	-17.2%	-3.3%	-17.6
N#Cc1cccc(NC(=O)c2cncn2-c2ccccc2)c1	4.9	0.7%	8.8%	-0.6%	-1.7%	-2.8%	3.1%	10.8%	-4.5%	24.3
O=C(O)CNS(=O)(=O)c1ccc2c(c1)CCCC2	-5.2	-2.4%	-4.6%	0.6%	-1.4%	-5.3%	-5.9%	0.6%	-5.0%	2.3
N=C1S/C(=C\c2cn[nH]c2-c2ccc(F)cc2)C(=O)N1c1ccccc1F	2.2	-2.2%	2.7%	3.6%	0.1%	-16.7%	-3.2%	?	-9.9%	-21.3
